# Compound activity (PubChem)
# Mtb betalactam: beta-lactam sensitization of Mtb H37Rv, H37Rv | M. tuberculosis H37Rv growth with meropenem, percent inhibition; hits of this screen are not shown here | inhibition, % at 25 µM | hit rate 0.27% among 330,000 | AID 434955, 2010;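 active = about 74% or more and at least 40 points above the plate without the antibiotic, then above 30% in a dose series; inconclusive = first-round hits that could not be retested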;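 note: growth measured after seven days incubation then overnight dye step; 0% = bacteria only wells and 100% = bacteria with antibiotic; twin plates without the antibiotic show which effects depend on it; some results filed as inactive read as strong as hits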
# The depositor's hits bear a star; ? = inconclusive. The list is partial; count on the stated rates, not on these rows.
SMILES,Mtb betalactam
CC(C)(C)OC(=O)N[C@H](C(=O)OC(C)(C)C)c1ccc(C(F)(F)F)cc1,3
COc1ccc(-c2cc(C(=O)N3CCN(c4ccccc4OC)CC3)no2)cc1,6
O=C(COC(=O)C1=COCCO1)Nc1cc(C(F)(F)F)ccc1Cl,70
COc1ccc([C@H]2CC(=O)C=C(c3ccc(SC)cc3)C2)cc1,8
COc1ccccc1NS(=O)(=O)c1cccc(C(=O)N/N=C/c2c(CO)cnc(C)c2O)c1,0
COC(=O)[C@@]12CCCCN1[C@H](c1ccc(-c3ccc(F)cc3)cc1)[C@H]1C(=O)N(C)C(=O)[C@H]12,-7
CC(Sc1nncn1C)C(=O)Nc1ccc(N2CCCCC2)cc1 (stereo not given),16
C[C@]12CCC3C(CC[C@@H]4C[C@H](O)CC[C@]34C)C1CCC2=O (stereo not given in full),7
O=C(CCC1CCCC1)Nc1cc(Cl)ccc1N1CCOCC1,5
CCOC(=O)C1CCCN(C(=O)c2ccc(S(=O)(=O)N3CCOCC3)cc2)C1 (stereo not given),-8
CC(Sc1n[nH]c(-c2cccs2)n1)C(=O)Nc1ccc(C(N)=O)cc1 (stereo not given),-3
CN(C(=O)c1ccc(NC(=O)Cc2cccc(NC(=O)C3CCCN(C(=O)C4CCCC4)C3)c2)cc1)C1CCCC1 (stereo not given),-1
CON(C)C(=O)CCC1CCCN1C(=O)OC(C)(C)C (stereo not given),-3
Fc1ccc(COc2ccc(-c3nnco3)cc2)c(Cl)c1,-1
Cn1cc(C(CO)Cc2ccccc2)c2ccccc21 (stereo not given),8
COc1ccc(C(CNC(=O)C(C)(C)Oc2ccc(Cl)cc2)N2CCCC2)cc1 (stereo not given),-7
CN1CC[C@]2(CCN3CCc4c(oc5ccccc45)[C@@H]3C2)N(C)C1=O,-3
CCN(CC)S(=O)(=O)c1ccc(Cl)c(NC(=S)NC(=O)C2CCCC2)c1,-7
CCC1CCCCN1C(=O)COC(=O)CSc1ccc(C(N)=O)cc1[N+](=O)[O-] (stereo not given),-8
CCc1ccc(S(=O)(=O)NC2CC(C)(C)NC(C)(C)C2)cc1,-2
C[C@@H](NC(=O)c1ncn(C)c1C(=O)N[C@H](C)c1ccccc1)c1ccccc1,9
CC(Oc1ccccc1)C(=O)OCC(=O)Nc1sccc1C(N)=O (stereo not given),0
CC(OC(=O)CN1C(=O)c2ccccc2C1=O)C(=O)NC1CCCCC1C (stereo not given),1
COc1cccc(CC(=O)NN2C(=O)NC3(CCCCC3)C2=O)c1,0
O=C(COc1ccc(Cl)cc1Br)Nc1nnc(C2CC2)s1,-4

# Quoted at random: two entries already listed.
SMILES,Mtb betalactam
O=C(CCC1CCCC1)Nc1cc(Cl)ccc1N1CCOCC1,5
CCc1ccc(S(=O)(=O)NC2CC(C)(C)NC(C)(C)C2)cc1,-2

# (cont.)
SMILES,Mtb betalactam
CCCCn1c(N)c(N(CCOC)C(=O)C2CC(=O)N(Cc3ccco3)C2)c(=O)[nH]c1=O (stereo not given),-8
CN1CCN(C(=O)c2cccc(NS(=O)(=O)c3ccc(Br)cc3)c2)CC1,-3
CC(C)(C)c1ccc(C(=O)NCCC(=O)NNC(=O)COc2ccc(F)cc2)cc1,-9
NC(=O)CNCCC(c1ccccc1)c1ccccc1,-6
CCN1C(=NCc2ccc(OC)cc2)N[C@@H](c2ccccc2)[C@H](C(=O)OC)[C@H]1C,3
C/C(=N\NC(=O)c1c(Cl)c(C)nn1C)c1cccc(NC(=O)C2CCCC2)c1,?
COc1ccc(-c2ccnc3c(Br)c(C)nn23)cc1,64
N#C/C=C/N1CCN(C(=O)c2ccco2)CC1,-10
Nc1ncnc2c1ncn2C1O[C@H](CO)[C@@H](O)[C@@H]1O (stereo not given in full),98
NS(=O)(=O)c1cccc(NC(=O)COC(=O)CCN2C(=O)c3ccccc3C2=O)c1,-1
CCOC(=O)C1=C(C)NC(C)=C(C(=O)OCC)C1C(=O)OCC(=O)NCc1ccccc1OC,4
CCN(CC(=O)Nc1ccc(NC(C)=O)cc1)C(=O)CSC(c1ccccc1)c1ccccc1,2
Cc1cc(C(=O)NNC(=O)c2ccc(NC(=O)CC#N)cc2)c(C)o1,-5
COc1cc2cc(CCCOC(=O)c3ccc(F)cc3)oc(=O)c2cc1OC,5
COc1ccc(OC)c(C=NNC(=O)c2ccc(NS(=O)(=O)c3cccs3)cc2)c1,-1
CC(NC(=O)c1cccc(S(=O)(=O)N2CCCCCC2)c1)c1ccccc1 (stereo not given),6
COc1ccc(S(=O)(=O)Nc2cccc3c2O[C@H](CN(C)C(=O)Nc2ccccc2)[C@@H](C)CN([C@H](C)CO)C3=O)cc1,-1
COC(=O)C1=C(c2ccc(C(C)=O)cc2)C[C@@H]2CC[C@H]1N2C(=O)NCc1ccc(C(F)(F)F)cc1,6
CC(=O)Nc1cccc(NC(=O)c2cc([N+](=O)[O-])ccc2N2CCCCC2)c1,-6
CC(=O)Nc1ccc(S(=O)(=O)C(C#N)c2nc3ccccc3nc2NCCCO)cc1 (stereo not given),-4
CC(=O)c1ccc(-c2csc(N3CCC(C(N)=O)CC3)n2)cc1,9
COC(=O)[C@]1(C)N[C@H](CN(C)C(=O)c2ccccc2)[C@@H]2C(=O)N(Cc3ccccc3)C(=O)[C@@H]21,-1
CC(Oc1ccc(F)cc1)C(=O)Nc1ccc(S(=O)(=O)NC2=NCCCCC2)cc1 (stereo not given),2
O=C(COC(=O)c1cc(S(=O)(=O)N2CCOCC2)ccc1O)Nc1ccc2c(c1)OCO2,6
COc1cc(S(=O)(=O)N2CCOCC2)ccc1NC(=O)COC(=O)c1ccc(Cl)nc1,-4

# Compounds shown so far that contain nitrogen in an aromatic ring (15):
SMILES,Mtb betalactam
COc1ccc(-c2cc(C(=O)N3CCN(c4ccccc4OC)CC3)no2)cc1,6
COc1ccccc1NS(=O)(=O)c1cccc(C(=O)N/N=C/c2c(CO)cnc(C)c2O)c1,0
CC(Sc1nncn1C)C(=O)Nc1ccc(N2CCCCC2)cc1 (stereo not given),16
CC(Sc1n[nH]c(-c2cccs2)n1)C(=O)Nc1ccc(C(N)=O)cc1 (stereo not given),-3
Fc1ccc(COc2ccc(-c3nnco3)cc2)c(Cl)c1,-1
Cn1cc(C(CO)Cc2ccccc2)c2ccccc21 (stereo not given),8
C[C@@H](NC(=O)c1ncn(C)c1C(=O)N[C@H](C)c1ccccc1)c1ccccc1,9
O=C(COc1ccc(Cl)cc1Br)Nc1nnc(C2CC2)s1,-4
CCCCn1c(N)c(N(CCOC)C(=O)C2CC(=O)N(Cc3ccco3)C2)c(=O)[nH]c1=O (stereo not given),-8
C/C(=N\NC(=O)c1c(Cl)c(C)nn1C)c1cccc(NC(=O)C2CCCC2)c1,?
COc1ccc(-c2ccnc3c(Br)c(C)nn23)cc1,64
Nc1ncnc2c1ncn2C1O[C@H](CO)[C@@H](O)[C@@H]1O (stereo not given in full),98
CC(=O)Nc1ccc(S(=O)(=O)C(C#N)c2nc3ccccc3nc2NCCCO)cc1 (stereo not given),-4
CC(=O)c1ccc(-c2csc(N3CCC(C(N)=O)CC3)n2)cc1,9
COc1cc(S(=O)(=O)N2CCOCC2)ccc1NC(=O)COC(=O)c1ccc(Cl)nc1,-4

# Continued:
SMILES,Mtb betalactam
Cc1ccc(C(=O)OCC(=O)Nc2ccc(C(N)=O)cc2)s1,3
COC(=O)c1ccc(NC(=O)CN2CCN(CCO)CC2)cc1,-7
CNCCC=C1c2ccccc2C=Cc2ccccc21,7
COC(=O)c1ccccc1S(=O)(=O)N1CCC(C(=O)NCCC2=CCCCC2)CC1,4
COCCN(C(=O)CCSc1ccc(F)cc1)c1c(N)n(Cc2ccccc2)c(=O)[nH]c1=O,-6
CN(C(=O)c1cccc(S(=O)(=O)NCc2ccccc2)c1)C1CCCCC1,-7
COc1ccc(OC)c(-c2csc(NC(=O)CN3C(=O)NC4(CCCC4)C3=O)n2)c1,3
Cc1ccc(C)c(NC(=O)CN(C)C(=O)COc2ccc3ccccc3c2)c1,-8
COc1cc(C(=O)NCC(=O)NNC(=O)C2COc3ccccc3O2)cc(OC)c1OC (stereo not given),5
Cc1cccc(-c2c3c(nc4c2c(=O)n(C)c(=O)n4C)-c2ccccc2C3O)c1 (stereo not given),0
Cc1ccc(-c2csc(NC(=O)c3c(C)noc3C)n2)cc1C,98
O=C(CC1(CC(=O)N2CCOCC2)CCCC1)Nc1ccc(F)cc1,-10
CC(=O)c1ccc(OCC(=O)OC(C)C(=O)NC2CCCCC2C)cc1 (stereo not given),-3
COc1ccc(OC)c(NC(=O)COC(=O)c2ccc(OC)c(S(=O)(=O)N3CCOCC3)c2)c1,2
O=C(NCCN1CCOCC1)C1CC(=O)N(c2ccc(Cl)cc2)C1 (stereo not given),0
Cc1ccc(F)cc1NC(=O)COC(=O)c1ccc2ncsc2c1,-5
CN(CC(=O)Nc1ccc(Cl)cc1)C(=O)CCNC(=O)c1ccc(Cl)cc1,-4
CCOC(=O)[C@@H]1[C@H]2COc3cc(OC)ccc3[C@H]2N2C(=O)N(c3cccc(C)c3)C(=O)[C@]12C,0
COC(=O)C1=C(c2ccc(F)cc2OCc2ccccc2)C[C@@H]2CC[C@H]1N2C(=O)N1CCOCC1,-2
O=C(Nc1ccccn1)c1ccc(Br)s1,4
O=C(O)c1ccccc1C(=O)OCc1c(-c2ccccc2)ncc2ccccc12,-3
COc1ccc2sc(-c3ccc(SC)cc3)c(C#CCO)c2c1,43
CCCN(C(=O)CCNC(=O)c1ccc(Cl)cc1)c1c(N)n(Cc2ccccc2)c(=O)[nH]c1=O,0
NS(=O)(=O)c1cccc(NC(=O)COC(=O)CC2Sc3ccccc3NC2=O)c1 (stereo not given),0
COC(=O)[C@H](Cc1ccc(O)cc1)NC(=O)Cn1cnc2c(OCc3ccccc3)ncnc21,-3
# Going on with the list:
SMILES,Mtb betalactam
C/C(=N\NC(=O)CCC(=O)NCc1ccccc1)c1ccc([N+](=O)[O-])cc1,2
N#CCCCc1cc2ccccc2cn1,-5
COC(=O)[C@@]12CCCCN1[C@H](c1ccc(-c3cc(C(C)=O)cs3)c(OC)c1)[C@H]1C(=O)N(C)C(=O)[C@H]12,-2
COc1ccc(C(C)=O)cc1COC(=O)c1ccc(C)c(S(=O)(=O)N2CCOCC2)c1,-1
COc1cc(C#Cc2ccc3cc(CCO)oc(=O)c3c2)cc(OC)c1,-11
COc1ccc(CNC(=O)CN2C(=O)NC3(CCCCCCC3)C2=O)cc1,-3
CN(CC(=O)Nc1cccc2ccccc12)C(=O)c1ccc(F)cc1F,-10
Cc1cccn2c(=O)c3cc(C(=O)NCCc4ccccc4)c(=N)n(Cc4ccco4)c3nc12,89
CCc1ccccc1OCC(=O)Nc1cccc(S(=O)(=O)NCc2ccco2)c1,9
Cc1nc(NC(=O)COC(=O)C2CC2C)c(Cl)cc1Cl (stereo not given),-2
Cc1ccc(C(=O)NCC(=O)Nc2ccc3c(c2)OCCO3)cc1,-5
COc1ccc(C(=O)OCC(=O)NC(=O)NC2CCCC2)cc1[N+](=O)[O-],-5
CN1CCN(S(=O)(=O)c2ccc(N(C)Cc3c(F)cccc3Cl)nc2)CC1,-7
O=C(Cc1ccc(Br)cc1)Nc1cccc(S(=O)(=O)N2CCOCC2)c1,-4
Cc1ccc(OCCC(=O)NNC(=O)c2nn(C)c(=O)c3ccccc23)cc1,5
COC(=O)[C@@]12CCCCN1[C@H](c1ccc(-c3cccc(Cl)c3)cc1)[C@@H]1C(=O)N(C)C(=O)[C@@H]12,-9
CN(Cc1ccccc1)C(=O)c1ccc(NC(=O)Cc2cccc(NC(=O)C3CCN(C(=O)C4CCCC4)CC3)c2)cc1,0
CCOc1ccc(S(=O)(=O)Nc2cc(S(=O)(=O)N3CCOCC3)ccc2OC)cc1,-7
COc1cc(OC)cc(OC(=O)C2CCN(C(=O)c3ccc(Cl)cc3)CC2)c1,87
COc1ccc([C@H]2CC(=O)C=C(c3cc(C=O)ccc3OC)C2)cc1OC,8
Cc1cc(OCc2cccc(S(=O)(=O)N3CCOCC3)c2)ccc1Cl,-16
CS(=O)(=O)c1ccc(Cl)c(NC(=O)COC(=O)CNC(=O)c2sc3ccccc3c2Cl)c1,-7
CCOC(=O)N1CCN(C(=O)c2cc(COc3cccc(C(C)=O)c3)on2)CC1,?
O=C(Nc1ccc(Cl)c(S(=O)(=O)N2CCOCC2)c1)c1n[nH]c(=O)c2ccccc12,4
C[C@@H](CN1CCC(Cc2ccccc2)CC1)[C@@H](O)c1ccc(O)cc1,-3
# The results go on.
SMILES,Mtb betalactam
Cc1nn(Cc2ccccc2)c(C)c1C(=O)N1CCN(CC(=O)Nc2ccc(F)cc2)CC1,5
COc1ccccc1C(=O)Nc1ccc(OCC(=O)N2CC(C)CC(C)C2)cc1 (stereo not given),6
CC(=O)C[C@@H](O)CC(=O)[C@H]1OC(=O)[C@@H](C)C/C=C\Cc2ccccc21,-8
Cc1cccc(NC(=O)CNC(=O)Cn2ncc(Cl)c(Cl)c2=O)c1C,21
Cc1ccc2c(COC(=O)C3CSC4(C)CCC(=O)N34)cc(=O)oc2c1C (stereo not given),-11
Cc1ccc(C(=O)NCC(=O)OC2CCCCC2=O)cc1C (stereo not given),-6
NC(=O)NC(CC(=O)NNC(=O)c1cccs1)c1ccc(Cl)cc1 (stereo not given),2
O=S(=O)(c1ccc(Cl)nc1)N1CCCC1,-3
O=C(Cc1ccc(S(=O)(=O)N2CCOCC2)s1)Nc1cc(Cl)ccc1Cl,-6
CC(=O)Nc1cccc(NC(=O)c2ccc3[nH]c(C)c(C)c3c2)c1,-6
Cc1nn(Cc2ccccc2Cl)c(C)c1C(=O)N(C)CC(=O)Nc1cccc(F)c1,0
Cc1ccc(-c2ccc(S(=O)(=O)Nc3cccnc3)cc2)cc1,?
COc1ccc(NC(=O)C/C(C)=N/NC(=O)c2cccs2)c([N+](=O)[O-])c1,89
COc1ccc(-c2cc(C(=O)N3CCN(c4ncccn4)CC3)c3ccccc3n2)cc1,58
CCCCN(C(=O)Nc1ccccc1)C1CCS(=O)(=O)C1 (stereo not given),2
O=C(CCNS(=O)(=O)c1ccccc1C(F)(F)F)N1CCCCCCC1,-7
Cc1ccc2c(c1)C(=O)C(=O)N2c1ccc(C(F)(F)F)cc1,-3
CCC(CO)Oc1cc(NCc2ccc(C(C)(C)C)cc2)c2ncn(C(C)C)c2c1 (stereo not given),8
CN(CC(=O)Nc1ccc(Cl)c(C(F)(F)F)c1)C(=O)c1cnccn1,-2
